# VDR inh – inhibitors of human vitamin D receptor | P11473 | VDR-SRC2-3 peptide fluorescence polarization, 2 h | Potency, µM, for inactives: max response, negative = inhibition, usual class: inhibitors | actives 0.93% (n = 400,000) | AID 504847; active means well fitted inhibition curve with a large enough effect; inconclusive means small, poorly fitted or top-dose-only effect, or another doubt; inactive means no such curve, though single readings can be large or run the other way; further: series mostly up to about 120 µM
# Target sequence (P11473 whole entry, looked up): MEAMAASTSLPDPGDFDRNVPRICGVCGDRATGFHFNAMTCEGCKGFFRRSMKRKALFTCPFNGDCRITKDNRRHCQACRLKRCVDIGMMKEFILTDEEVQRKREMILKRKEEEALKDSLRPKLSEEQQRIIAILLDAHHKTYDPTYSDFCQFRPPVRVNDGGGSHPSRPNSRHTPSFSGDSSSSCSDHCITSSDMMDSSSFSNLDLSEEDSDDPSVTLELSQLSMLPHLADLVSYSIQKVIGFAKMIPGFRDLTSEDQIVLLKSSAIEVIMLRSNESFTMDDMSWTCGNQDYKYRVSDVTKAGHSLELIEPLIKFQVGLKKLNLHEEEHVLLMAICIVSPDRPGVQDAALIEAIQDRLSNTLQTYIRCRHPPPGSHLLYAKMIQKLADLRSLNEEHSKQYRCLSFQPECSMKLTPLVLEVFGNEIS
#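 Reagent solutions, kept cold and dark, are dispensed first; compounds are then pinned in at 23 nl, plates briefly spun, and incubated 2 h at ambient temperature. Inhibition of VDR–SRC2-3 peptide binding is read by fluorescence polarization.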
# The depositor's hits bear a star; ? = inconclusive; & = joins results of further samples. On the % scale 0 is the no-effect control and ±100 the full control effect; potency means the concentration at half of the fitted maximal effect. The list is partial, so the mix of outcomes need not match the whole.
SMILES,VDR inh
O=C(CCc1nc(-c2ccccc2F)no1)NCCc1ccccc1Cl,6%
O=C(NNc1ccc(F)cc1F)c1cccs1,-14%
Cc1ccccc1CCNC(=O)c1ccc(Cl)c(S(=O)(=O)N2CC(C)OC(C)C2)c1 (centres undefined),9%
COc1ccc(C)cc1NC(=O)CN1CCN(S(=O)(=O)c2ccc(Br)cc2)CC1,0%&11%
NC(=O)NCc1ccccc1Cl,-2%
CC(C)OC(=O)Cc1nc2sc(-c3ccccc3)cc2c(=O)[nH]1,-10%
COc1ccc(C(=O)NCc2ccccc2C)cc1S(=O)(=O)NC1CCCC1,-1%
Cc1ccc(CSc2nc3nc(C)cc(C)c3c(=O)[nH]2)cc1,-25%
COC(=O)C1=C(C)N(Cc2ccccc2)C(=NCCCCO)N[C@H]1c1ccccc1,-17%
N/C(=N\OC(=O)Cc1ccc([N+](=O)[O-])cc1)c1ccccn1,-6%
N#CCC(=O)Nc1ccc(C(=O)OCC(=O)NNC(=O)c2cccs2)cc1,-1%
Cc1cc(N2CCN(c3ccccc3)CC2)nc2ccccc12,22%
O=[N+]([O-])c1ccccc1S(=O)(=O)NCCc1ccncc1,-7%
COc1ccc(C(=O)/C=C/c2ccc(OC)c(COc3ccc(F)cc3)c2)cc1,13%
CCOc1ccc(NC(C)=O)cc1N,-4%
CCN(CC)c1nc(Oc2ccc(=O)[nH]n2)nc(N2CCOCC2)n1,11%
O=C(CSc1ccc(-c2ccccn2)nn1)NC1CCCC1,12%
O=C(NCc1ccccn1)c1cc2cc(Br)ccc2oc1=O,-18%
COc1cccc(-c2nn(-c3ccc(C)cc3)cc2C(=O)N(C)CC(=O)Nc2cccc(F)c2)c1,-6%
Cc1cc(C)cc(-n2nnc(-c3nc(-c4ccccc4F)no3)c2C)c1,9%
CCOc1ccc(CNCc2c(C(=O)O)c(C)n(Cc3c(F)cccc3Cl)c2C)cc1OC,17%
Cc1ccc(S(=O)(=O)N2CCN(CC(O)c3ccccc3)CC2)cc1C (centres undefined),-7%
c1csc(CNc2ncncc2-c2ccc3c(c2)OCO3)c1,-2%
COc1ccc(C(=O)Nc2ccc(/C(C)=N/NC(=O)c3ccccc3O)cc2)cc1OC,-22%
Cc1c(-c2cccs2)[n+](=O)c2c(n1[O-])CCC2,-6%
COc1ccc(NC(=O)CSC2=Nc3ccccc3C3=NC(CCC(=O)NC4CCCCC4)C(=O)N23)cc1 (centres undefined),6%
Cc1ccccc1/C=N/NC(=O)Cn1nnc(N)n1,6%
CCn1cc2nc(SCc3cccc(C(F)(F)F)c3)n(Cc3ccc(C)cc3)c(=O)c2n1,-3%
Cc1ccc(CNC(=O)c2ccc(N3Cc4ccccc4Oc4ncccc43)s2)cc1,-2%
COc1ccc(-c2csc(NC(=O)CSC(C)C(=O)Nc3cc(C)on3)n2)cc1OC (centres undefined),6%
CCN(CC)CCCNc1oc(-c2ccc(OC)c(OC)c2)nc1C#N,8%
Cc1ccc(-n2ncc3c2CC(C)(C)CC3NC(=O)CCn2cncn2)cc1 (centres undefined),-1%
CC(=O)N1CCN(C(=O)c2cc(S(=O)(=O)N(C)c3ccc(F)cc3)ccc2Cl)CC1,5%
O=S(=O)(Nc1ccc(-c2ccc(N3CCCC3)nn2)cc1)c1cc(F)ccc1F,13%
O=C(CN1CCC(n2nnc3cc(F)ccc32)CC1)NCc1ccco1,-5%
CCc1c(C)nc2ncnn2c1N1CCC(C(=O)NCc2ccc3c(c2)OCO3)CC1,11%
COc1ccc(NC(=O)c2sc3nc(N4CCOCC4)c4c(c3c2N)CCCC4)c(OC)c1,-10%
CSc1ccc(CNC(=O)CCn2ccc3cc(S(=O)(=O)N4CCCC4)ccc32)cc1,-25%&3%
Cc1ccc(-n2cccn2)c(CN2CCCC(C(=O)c3sccc3C)C2)c1 (centres undefined),7%
CCOc1ccc2nc(N3CCCC(C(=O)NCCCN4CC(C)CC(C)C4)C3)sc2c1 (centres undefined),13%
O=C(/C=C\NCC(=O)c1ccccc1)c1ccc(F)cc1,-16%
Cc1ccc(CNC(=O)C2CCCN(S(=O)(=O)c3c(C)n[nH]c3C)C2)cc1 (centres undefined),-1%
COc1cc(-c2nc3oc4ccccc4c(=O)c3c(=O)n2Cc2ccco2)cc(OC)c1OC,-17%
Cc1cc(OCCN2CCOCC2)nc2ccccc12,-10%
O=C(CN(Cc1ccccc1Cl)C(=O)CCC(=O)Nc1nccs1)NCC1CCCO1 (centres undefined),-15%
CCN(C[C@H]1N[C@@](Cc2ccccc2)(C(=O)OC)[C@H]2C(=O)N(Cc3ccccc3)C(=O)[C@@H]12)C(=O)Nc1ccc(C(F)(F)F)cc1,5%
Cc1cccc(S(=O)(=O)c2c(N)n(Cc3ccco3)c3nc4ccccc4nc23)c1,-3%
CCOC(=O)c1ccc(NC(=O)CCNS(=O)(=O)c2cccs2)cc1,-3%
Cc1cc(C)c2nc(N3CCCC(C(=O)NCc4ccccc4F)C3)sc2c1 (centres undefined),-23%
COc1ccc(-c2nsc(NC(=O)c3oc4cc(C)c(C)cc4c3C)n2)cc1,3%
Cc1ccc(S(=O)(=O)Nc2nc(C)c(C)s2)cc1,-2%
COc1ccc(NC(=O)CSc2nnc(-c3ccccn3)n2N)cc1Cl,-7%
O=C(COC(=O)c1cc[n+]([O-])cc1)Nc1ccc(Cl)cc1C(F)(F)F,-8%
Cc1c(C)c2ccc(Oc3ccc([N+](=O)[O-])cc3C(F)(F)F)c(C)c2oc1=O,1%
C=CCNC(=S)Nc1ccccc1,-1%
CCCC(=O)Oc1ccc(C2NC(=O)c3ccccc3O2)cc1 (centres undefined),-13%
NNc1nc(-c2ccccc2)cc(-c2ccccc2O)n1,-7%
COc1ccc(NC(=S)N2CCN(C(=O)C3CCCO3)CC2)cc1 (centres undefined),-5%
OCCN1CCOCCN(CCO)CCOCC1,7%
Cc1nc2scc(C)n2c(=O)c1S(=O)(=O)Nc1cccc(C(F)(F)F)c1,-4%

# In the list so far, these have fluorine.
SMILES,VDR inh
O=C(CCc1nc(-c2ccccc2F)no1)NCCc1ccccc1Cl,6%
O=C(NNc1ccc(F)cc1F)c1cccs1,-14%
COc1ccc(C(=O)/C=C/c2ccc(OC)c(COc3ccc(F)cc3)c2)cc1,13%
COc1cccc(-c2nn(-c3ccc(C)cc3)cc2C(=O)N(C)CC(=O)Nc2cccc(F)c2)c1,-6%
Cc1cc(C)cc(-n2nnc(-c3nc(-c4ccccc4F)no3)c2C)c1,9%
CCOc1ccc(CNCc2c(C(=O)O)c(C)n(Cc3c(F)cccc3Cl)c2C)cc1OC,17%
CCn1cc2nc(SCc3cccc(C(F)(F)F)c3)n(Cc3ccc(C)cc3)c(=O)c2n1,-3%
CC(=O)N1CCN(C(=O)c2cc(S(=O)(=O)N(C)c3ccc(F)cc3)ccc2Cl)CC1,5%
O=S(=O)(Nc1ccc(-c2ccc(N3CCCC3)nn2)cc1)c1cc(F)ccc1F,13%
O=C(CN1CCC(n2nnc3cc(F)ccc32)CC1)NCc1ccco1,-5%
O=C(/C=C\NCC(=O)c1ccccc1)c1ccc(F)cc1,-16%
CCN(C[C@H]1N[C@@](Cc2ccccc2)(C(=O)OC)[C@H]2C(=O)N(Cc3ccccc3)C(=O)[C@@H]12)C(=O)Nc1ccc(C(F)(F)F)cc1,5%
Cc1cc(C)c2nc(N3CCCC(C(=O)NCc4ccccc4F)C3)sc2c1 (centres undefined),-23%
O=C(COC(=O)c1cc[n+]([O-])cc1)Nc1ccc(Cl)cc1C(F)(F)F,-8%
Cc1c(C)c2ccc(Oc3ccc([N+](=O)[O-])cc3C(F)(F)F)c(C)c2oc1=O,1%
Cc1nc2scc(C)n2c(=O)c1S(=O)(=O)Nc1cccc(C(F)(F)F)c1,-4%

# More structures:
SMILES,VDR inh
Cc1ccc2c(c1)N(C(=O)CCC(=O)N1CCCCC1)CCO2,1%
CC(=O)CSc1nnc(-c2ccc(S(=O)(=O)N3CCC(C)CC3)cc2)o1,0%
COC(=O)[C@@H]1CC2=CC(=O)CC[C@]2(C)[C@@]23O[C@@H]2C[C@@]2(C)[C@H](CC[C@@]24CCC(=O)O4)[C@@H]13,9%
Cc1ccn2c(=O)nc(SCC(=O)NCCc3ccccc3)nc2c1,-19%
CCn1c(SCC(=O)NC2=NCCS2)nnc1C(C)NC(=O)c1ccc(Cl)cc1 (centres undefined),-7%
O=C(NCC1(c2ccccc2)CCCC1)c1ccccc1Br,0%
C=CCNC(=O)C(=O)NCC1CCCN1S(=O)(=O)c1cccs1 (centres undefined),-28%
COc1ccc(CCn2c(=O)c3cccnc3n(Cc3ccc([N+](=O)[O-])cc3)c2=O)cc1OC,13%
Cc1cc(C)cc(NC(=O)Cn2c(=O)n(-c3cc(C)cc(C)c3)c(=O)c3oc4ccccc4c32)c1,-1%
COc1cc2[nH]c(=O)n(CCCCCC(=O)NC3CCCC3)c(=O)c2cc1OC,26%
Cn1c(=O)c2c(nc(CN3CCOCC3)n2CCCO)n(C)c1=O,-16%
Cc1cc(C)n(C(=O)c2ccc([N+](=O)[O-])c(Cl)c2)n1,-18%
CCN(CC)C(=O)COC(=O)c1cc(-c2ccc(OC)cc2)nc2ccccc12,-1%
Cc1scc(C(=O)N2CCN(c3ccc(Cl)cc3)CC2)c1C,?
Cc1ccc(C)c(S(=O)(=O)N2CCN(C(=O)CNC(=O)c3ccc4ccccc4c3)CC2)c1,-2%
Cc1ccc(NC(=O)CCC(=O)Nc2ccc(C)cc2)cc1,-13%
Cc1cc(F)ccc1NC(=S)NCCc1ccccc1,-15%
O=C(CSc1nc2ccccc2[nH]1)N/N=C/C=C/c1ccccc1[N+](=O)[O-],-7%
CC(C)CC(c1nnnn1Cc1cccs1)N1CCN(c2nc3ccccc3s2)CC1 (centres undefined),-1%
C=CCn1c(SCc2c(F)c(F)c(F)c(F)c2F)nc(O)cc1=O,-3%
CCOC(=O)c1cc(NC(=O)c2ccoc2C)cc(C(=O)OCC)c1,2%
COc1ccccc1NC(=O)CN1CCCN(S(=O)(=O)c2ccc(Br)cc2)CC1,9%
O=C(Cn1c(=O)ccc2cc(S(=O)(=O)N3CCCC3)ccc21)NCc1ccc(Cl)cc1,12%
CC(C)c1ccc2oc(-c3ccc(N)cc3)nc2c1,-12%
CN(C(=O)CSc1nc2ccccc2o1)C1CCS(=O)(=O)C1 (centres undefined),-10%
CCNc1nc(SCC(=O)Nc2ccc(Cl)c(Cl)c2)nc(N(C)C)n1,-14%
O=C(Nc1cccc(C(=O)N2CCCCC2)c1)c1ccc(Cl)cc1,3%
O=C(C1CCN(c2nnc(N3CCCC3=O)s2)CC1)N1CCN(Cc2ccc3c(c2)OCO3)CC1,-2%
CCOC(=O)c1cc(-c2ccccc2)sc1NC(=O)C(C)OC(=O)c1cccnc1OCC (centres undefined),-9%
O=C1c2cccc(OCC(=O)N3CCCc4ccccc43)c2CCN1Cc1ccc(Br)cc1,?
CCOC(=O)c1ccc(Nc2cnc3ccccc3n2)cc1,-7%
CCOC(=O)CN1c2ccccc2NC(=O)CC1C (centres undefined),-6%
Cc1cccc(C)c1NC(=O)NCCc1c[nH]c2ccccc12,4%
Cc1nn2c(C(F)(F)F)cc(-c3ccc(Cl)cc3)nc2c1C(=O)N1CCOCC1,24%
CCCN1CCN(CCCNC(=O)C2CCCN(c3nc4ccc(OCC)cc4s3)C2)CC1 (centres undefined),6%
Cc1sc2ncn(CC(=O)NC3CCCCC3)c(=O)c2c1C,-6%
CCN(CC)c1ccc(C=Nc2ccc(C#N)cc2)c(O)c1,8%
Cc1ccccc1C(=O)NNC(=O)C(=O)N1CCCCC1,7%
COc1ccc(Cc2nnc(Nc3ccc4c(c3)OCCO4)[nH]c2=O)cc1,15%
NC(=O)C1CCN(C(=O)c2cc(-c3ccc(Cl)s3)nc3ccccc23)CC1,0%
CCOC(=O)Cc1csc(NC(=S)NC(=O)c2ccc(C)cc2)n1,-4%
O=C(CC1C(=O)OCCN1Cc1ccccc1)Nc1cccc(C(F)(F)F)c1 (centres undefined),3%
CCOc1ccc(C(C)C)cc1S(=O)(=O)N1CCOCC1,-8%
CC(=O)NC(c1cc(Cl)c2cccnc2c1O)C(C)C (centres undefined),-13%
Cc1ccc2nc(N/C(=N/S(=O)(=O)c3cccs3)c3ccccc3Cl)sc2c1,-5%
CC1(C)CC(=O)C2=C(C1)NC1=C(C(=O)c3ccccc31)C2c1ccc(Cl)cc1 (centres undefined),-21%
S=C(c1ccc(-c2ccc(Cl)cc2Cl)o1)N1CCCCC1,-8%
O=C1c2ccccc2C(=O)N1CCc1csc(NNc2nc(CCN3C(=O)c4ccccc4C3=O)cs2)n1,26%
COc1cccc(NC(=O)CSc2nc(-c3ccccc3)nc3c2Cc2cc(Cl)ccc2O3)c1,-2%
CCc1nc(C)ccc1OCC(=O)O,-1%
O=S(=O)(c1ccc2ccccc2c1)N1CCCCCC1,5%
Cc1c(C(=O)N2CCCCC2)c(S(=O)(=O)N2c3ccccc3CC2C)c(C)n1C (centres undefined),-8%
CC(C)Cn1cnc2c1c(=O)n(CC(=O)N(C)C)c(=O)n2Cc1ccccc1,1%
O=C(COC(=O)c1ccc(O)cc1)Nc1ccccc1[N+](=O)[O-],-4%
Cc1ccc(CCCOC(=O)C[N+]2(C)CCOCC2)cc1,-15%
O=C1CN(S(=O)(=O)c2ccccc2)c2ccccc2N1,-10%
CCC(=O)N1c2ccccc2C(N(C(C)=O)c2ccccc2)CC1C (centres undefined),15%
CCOC(=O)CSc1nnc(CNC(=O)c2ccco2)n1C,-6%
CN1CCN(c2ccc(NC(=O)c3ccc(-c4cccc([N+](=O)[O-])c4)o3)cc2)CC1,-2%
Oc1ccccc1OCC(O)c1ccccc1 (centres undefined),3%
Cc1ccc(-n2cccc2/C=C2/NC(=O)N(CC(=O)Nc3cccc(C)c3)C2=O)cc1,-5%
Cc1ccc(CNC(=O)CS(=O)(=O)Cc2nc(-c3ccccc3C)oc2C)cc1,-17%
COCCCN1C(=O)CS/C1=N\S(=O)(=O)c1ccccc1,-13%
